Screening data deposited in PubChem BioAssay by National Center for Advancing Translational Sciences (NCATS).
Vaccinia Venus = vaccinia inhibition (Venus reporter); Vaccinia virus Venus reporter expression, fluorescence; Potency, µM (titrated, usually from 36.5 µM), for inactives: at the top dose activity change, negative = inhibition, usual class: inhibitors; hit rate 0.46% among 330,000; active means well fitted inhibition curve with a large enough effect; inconclusive means small, poorly fitted or top-dose-only effect; inactive means no such curve, though single readings can be large or run the other way; tested in A549 cells; also: nearly all actives have a fitted effect of over 30% in size; inactives centre near -10
Vaccinia mCherry = vaccinia inhibition (mCherry reporter); Vaccinia virus mCherry reporter infection, fluorescence; about a quarter of the inactives have no number; Potency, µM (top dose mostly 36.5 µM), for the others: at the top dose activity change, negative = inhibition, hits mostly inhibitors; hit rate 0.63% among 310,000; AID 720579; active = well fitted inhibition curve with a large enough effect; inconclusive = small, poorly fitted or top-dose-only effect; inactive = no such curve, though single readings can be large or run the other way; tested in A549 cells; also: nearly all actives have a fitted effect of over 35% in size; inactives centre near -10
The depositor's hits bear a star; i = inactive; ? = inconclusive; . = not tested or not shown; [ ] = dose if it differs, or a comment. % is scaled to controls: 0 for no effect and ±100 for the full control effect; potency is read from the fitted curve at half-maximal effect.

Values run as follows: Vaccinia Venus | Vaccinia mCherry
- Cc1ccc(-c2sc(C(=O)Nc3ccc(Br)cc3)cc2CC(=O)O)cc1
    1% | 0%
- O=[N+]([O-])c1cccc(-c2n[nH]c(=S)n2-c2ccccc2)c1
    -19% | -21%
- Cc1nnc(NC(=O)c2ccncc2)s1
    17% | .
- CC=C(C)C1(CCC)C(=O)NC(=S)NC1=O
    -7% | i
- O=C(Cc1ccc(Cl)cc1)NCc1ccccc1Cl
    -11% | -8%
- CCCCNc1c(-c2cccc(OC)c2)nc2nc(C)cc(C)n12
    -4% | i
- CC(=O)N(Cc1ccc2c(c1)OCO2)C1CC(=O)N(CCc2ccccc2)C1=O (configuration not stated)
    -6% | .
- Cc1nc2cc(Cl)c(Cl)cc2n1CCCO
    -17% | -19%
- CCC/C=C/c1ccc(CN2C(C)C(=O)N(Cc3cn(CCOCOC)nn3)CCS2(=O)=O)cc1 (configuration not stated)
    -10% | -12%
- COCC(C)NC(=O)c1cc(-c2ccc(OC)c(OC)c2)on1 (configuration not stated)
    -12% | -14%
- CCOC(=O)c1oc2c(c1C)-c1nn(Cc3ccccc3Cl)cc1CC2
    -24% | -16%
- COc1cc(/C=N/Nc2nn3cnnc3c3ccccc23)cc(OC)c1OC
    2% | -12%
- Cc1cccc(N/N=C/c2c(O)[nH]c(=S)[nH]c2=O)c1
    -14% | ?
- Cc1ccc2nc(SCC(=O)N3CCCCC3)nc(=O)n2c1
    -5% | -1%
- COc1cc(O)c(C(CC(=O)N2CCOCC2)c2ccc(N(C)C)cc2)c(OC)c1 (configuration not stated)
    -13% | -29%
- CCC(C)(C)C1CCC2(CC1)NC(=O)N(CC(=O)N1CCN(S(=O)(=O)c3cc(C)ccc3C)CC1)C2=O (configuration not stated)
    -14% | -1%
- CCOC(=O)Cc1ccc(Nc2nc(NCc3ccccc3)nc3ccsc23)cc1
    -10% | 2%
- O=C(c1ccccc1)C1(c2ccccc2)OC1c1ccccc1 (configuration not stated)
    -13% | -6%
- FC(F)(F)c1ccccc1-c1cncnc1NCCc1cnc[nH]1
    -21% | -20%
- CCOC(=O)c1ccc2[nH]c(C)c(CN3CCN(C)CC3)c(=O)c2c1
    -11% | .
- Cc1cccc(CCNC(=O)C2CCN(S(=O)(=O)c3c(C)noc3C)CC2)c1
    1% | -5%
- COc1cccc(C2(CC(=O)N3CCC(c4nc5ccccc5o4)CC3)CC(=O)N(C)C2=O)c1 (configuration not stated)
    -11% | -17%
- O=C(O)c1ccn[nH]1
    -4% | 0%
- C[C@H](NC(=O)c1cc2c(cn1)[nH]c1ccccc12)C(=O)O
    -11% | i
- Cc1cccc(/C(N)=N/OC(=O)N2c3ccccc3Sc3ccccc32)c1
    -15% | -18%
- CCOC(=O)N1CCC2CC1c1cc(-c3cccc(OC)c3)ccc12 (configuration not stated)
    ? | -24%
- COc1ccccc1NC(=O)Oc1cccc(OC(=O)c2ccccc2)c1
    -11% | i
- O=[N+]([O-])c1ccc(Cl)c(/C=N/N2CCN(c3ccccc3)CC2)c1
    0% | -4%
- Cc1cc(C(F)F)n2ncc(C(=O)NCc3ccccc3F)c2n1
    -13% | -11%
- CCCc1ccccc1OCCNS(=O)(=O)c1cc2c(cc1C)OCC(=O)N2
    -23% | ?
- Cc1ccccc1CSc1nn2c(=O)c(C)nnc2s1
    -8% | -3%
- CCC(C)(C)NC(=O)CN(C(=O)CCC(=O)Nc1cc(C)ccn1)c1ccc2c(c1)OCO2
    -1% | .
- COCCNC(=O)C(c1ccc(O)cc1)N(C(=O)CCC(=O)Nc1nccs1)c1cccc(C)c1 (configuration not stated)
    -17% | -1%
- O=C(CN1CCN(c2ccc(O)cc2)CC1)NC(=O)NCc1ccco1
    -3% | -6%
- CCOCCCNC(=O)CN1CCN(Cc2ccccc2C)C1=O
    -4% | i
- CN(c1ccccc1)S(=O)(=O)c1cccc(C(=O)NCC(c2cccs2)N2CCOCC2)c1 (configuration not stated)
    -24% | -3%
- COC(=O)C1=C(O)/C(=C\c2sccc2C)N=C1C
    -7% | i
- CCCn1c(=O)c(C(=O)NCc2ccccn2)c(O)c2ccccc21
    -27% | .
- CC(=O)Nc1ccc(NC2=Nc3ccccc3N3C2=Nc2c(c(C)nn2-c2ccccc2)C3c2ccccc2)cc1 (configuration not stated)
    ? | ?
- COC(=O)C1=CN(Cc2ccc(OC)cc2)C=C(C(=O)OC)C1c1cccs1
    -8% | -10%
- Cc1ccc(C(=O)CSc2nc3cc(S(=O)(=O)N4CCOCC4)ccc3o2)cc1
    -12% | -16%
- CCN(CC)C(=O)N1CCN(S(=O)(=O)c2ccc(C)cc2)CC1
    -13% | i
- COc1ccc(C(=O)O/N=C(\N)c2ccccn2)cc1
    1% | i
- Cc1ccccc1-c1nccc(-n2ccnc2)n1
    2% | -1%
- COCc1cc(=O)[nH]c(/N=C(\N)Nc2cccc(Cl)c2)n1
    11% | 10%
- CCNC(=O)NCCNC(=O)c1cc(OCC(F)(F)F)ccc1OCC(F)(F)F
    -16% | i
- Cc1ccc(C(=O)Nc2cccnc2)cc1S(=O)(=O)N1CCCCCC1
    -14% | -4%
- CC[C@H](C)[C@H]1CNC(=S)N1CC1CCN(CCC(C)C)CC1
    -23% | i
- CCNC(=O)C1CCCN(C(=O)c2cc(OC)c(OC)c(OC)c2)CC1 (configuration not stated)
    -4% | -5%
- CC1COc2ccccc2N1C(=O)c1ccc(Cl)nc1 (configuration not stated)
    -10% | -21%
- C=CCN(c1ccccc1)S(=O)(=O)c1cccc(C(=O)Nc2nc3ccccc3[nH]2)c1
    -23% | -6%
- CN1Cc2c(N3CCOCC3)nc3sc(C(=O)c4ccc(Br)cc4)c(N)c3c2CC1(C)C
    -26% | 6.3µM*
- C/C(N)=C(/C#N)C(=O)COc1ncnc2ccc(Br)cc12
    10% | 1%
- COc1ccccc1N1C(=O)C2C3C=CC(C3)C2C1=O (configuration not stated)
    ? | .
- CC(C)C(NC(=O)C1CCCCC1)C(=O)NCc1ccccn1 (configuration not stated)
    ? | .
- COc1ccccc1N1CCN(CCCNC(=O)c2nnc(Cc3ccc(F)cc3Cl)o2)CC1
    -13% | -10%
- COc1ccc(C(=O)NC(=S)Nc2ccc(S(=O)(=O)Nc3cc(OC)nc(OC)n3)cc2)cc1
    7% | 3%
- O=C(COC(=O)c1c2c(nc3ccccc13)/C(=C\c1ccco1)CC2)NC1CCCC1
    -23% | -23%
- CC(=O)c1cccc(N(C(=O)Cn2nnc3ccccc32)C(C(=O)NCc2ccccc2)c2ccccn2)c1 (configuration not stated)
    -12% | -18%
- COC(=O)CCC(=O)OC1(C)C(=O)C=C2C=C(C3CC3)N(CCCOC(C)C)C=C2C1=O (configuration not stated)
    -15% | -1%

Additional structures follow.
Values run as follows: Vaccinia Venus | Vaccinia mCherry
- CCCOc1ccccc1N/C(N)=N/c1nc(C)cc(C)n1
    4% | -17%
- CCOC(=O)C1CCCN(C(=O)C2CCN(S(=O)(=O)c3ccc4ccccc4c3)CC2)C1 (configuration not stated)
    -24% | ?
- Cc1ccnc2nc(C(=O)NCc3ccccc3)nn12
    2% | 6%
- COc1cc(NC(=O)c2cc(Br)cc(C)c2OC)ccc1NC(=O)C(C)C
    -9% | i
- COc1ccc(OC)c(CC(=O)N2CCc3cc(OC)c(OC)cc3C2)c1
    -2% | -5%
- COC(=O)[C@@]12C[C@@H](CC(=O)NCc3ccc(OC)c(OC)c3)C(=O)N(Cc3cccc4ccccc34)C1=CCC(C)(C)C2
    ? | ?
- CNc1ccccc1
    -15% | i
- O=C(NCc1ccccc1F)Nc1nnc([C@@H]2C[C@H](O)[C@@H](CO)O2)s1
    -6% | 39%[activator]
- Fc1ccc(N2CCN(c3ncnc4c3nnn4Cc3ccccc3Cl)CC2)cc1
    -1% | .
- O=C(NC1CCc2ccccc21)C1CCN(S(=O)(=O)c2ccc(Cl)cc2)CC1 (configuration not stated)
    -13% | i
- COc1cccc(Cn2cnc(-c3ccccc3OC)c2-c2cccnc2)c1
    -6% | -14%
- Cc1ccc(-n2c(C)nc3cc(Cl)ccc3c2=O)nc1
    -18% | -14%
- Cc1ccc(C)c(NC(=O)C2CCCN2C(=O)OC(C)(C)C)c1 (configuration not stated)
    -15% | .
- CCCNC(=O)C1(C)CCN(C(=O)c2cc(C)nn2C(C)(C)C)C1 (configuration not stated)
    -7% | 3%
- CCOC(=O)C1=C(N)OC2=C(C(=O)CCC2)C12C(=O)Nc1ccccc12 (configuration not stated)
    1% | -5%
- CCOc1ccc2[nH]c(=O)c(C(c3nnnn3Cc3ccco3)N3CCN(C)CC3)cc2c1 (configuration not stated)
    -7% | -12%
- Cc1occc1-c1nnc(SCC(=O)NCc2ccc3c(c2)OCO3)n1CC(C)C
    -1% | -18%
- Cc1cc(NC(=O)CCN2C(=O)C3C4CCC(C4)C3C2=O)cc(C)c1Br (configuration not stated)
    -12% | -20%
- O=C(NNS(=O)(=O)c1ccc(CCCl)cc1)C(O)(c1ccccc1)c1ccccc1
    -14% | -19%
- NC1=NN(c2c(Cl)cc(Cl)cc2Cl)C(=O)C1
    -2% | -4%

5 records picked at random from the list so far, as already listed:
Values run as follows: Vaccinia Venus | Vaccinia mCherry
- COC(=O)[C@@]12C[C@@H](CC(=O)NCc3ccc(OC)c(OC)c3)C(=O)N(Cc3cccc4ccccc34)C1=CCC(C)(C)C2
    ? | ?
- Cc1occc1-c1nnc(SCC(=O)NCc2ccc3c(c2)OCO3)n1CC(C)C
    -1% | -18%
- NC1=NN(c2c(Cl)cc(Cl)cc2Cl)C(=O)C1
    -2% | -4%
- CCCNC(=O)C1(C)CCN(C(=O)c2cc(C)nn2C(C)(C)C)C1 (configuration not stated)
    -7% | 3%
- Cc1ccnc2nc(C(=O)NCc3ccccc3)nn12
    2% | 6%

The list continues.
Values run as follows: Vaccinia Venus | Vaccinia mCherry
- CCO[C@@H]1OC(C(=O)NCc2ccccc2)=C[C@H](C2CCCCC2)[C@H]1CCCO
    -30% | -24%
- Cc1cccc(CCNC(=O)c2cccc(NC3=NC4CS(=O)(=O)CC4S3)c2)c1 (configuration not stated)
    3% | i
- CCC(C)c1c(NS(=O)(=O)c2ccc(C)cc2)o[nH]c1=O (configuration not stated)
    1% | i
- OC(COc1ccccc1)CN(Cc1ccccc1)CC(O)COc1ccccc1 (configuration not stated)
    ? | ?
- COc1ccc(Oc2coc3cc(OC(=O)c4cncc(Br)c4)ccc3c2=O)cc1
    -11% | -14%
- Cc1ccc(CN=C(N)Nc2nc(C)cc(C)n2)cc1
    ? | ?
- COc1ccc(-c2cc(C(F)(F)F)nc(SCC(=O)N3CCCCC3)n2)cc1OC
    -5% | 0%
- Cc1ccc(F)cc1NC(=O)c1ccc(NS(=O)(=O)c2ccc(Br)s2)cc1
    1% | -14%
- Cc1cccc(C(=O)OCC(=O)c2c(N)n(CC(C)C)c(=O)n(C)c2=O)c1[N+](=O)[O-]
    -11% | -23%
- O=C(NC1CCN(Cc2ccccc2)CC1)c1ccccc1F
    -9% | -1%
- CN(C)S(=O)(=O)N(CCN1CCOCC1)Cc1ccccc1F
    -10% | -7%
- Nc1cccc2c1C(=O)N(CCOc1ccc(F)cc1)C2=O
    -3% | -13%
- COc1cc2c(cc1C(F)(F)F)N(C(=O)Nc1cc(F)cc(-c3cccnc3)c1)CC2
    -27% | -5%
- C=C(C)Cn1c(=O)c2c(nc3n2CCCN3Cc2ccccc2)n(C)c1=O
    -11% | -9%
- O=C(Cn1nc(-c2ccccc2)nc1-c1ccccc1)N1CCOCC1
    ? | i
- Oc1ccc2c3c1O[C@H]1c4oc5ccccc5c4C[C@@]4(O)[C@@H](C2)N(CC2CC2)CC[C@]314
    -16% | -9%
- Cc1ccc(N/N=C2\CCS(=O)(=O)c3sccc32)cc1
    3% | -22%
- COc1ccc(C2C(C(C)=O)=C(O)C(=O)N2CCO)c(OC)c1 (configuration not stated)
    -8% | .
- CC(C)C1CC(O)(C2(O)CCCCC2)ON1 (configuration not stated)
    -18% | -18%
- Cc1oc(-c2ccc(Cl)cc2)nc1CN1CCC(C(=O)NCCCN2CCCC2=O)CC1
    -19% | -8%

Whole records as entered above. Order of values: Vaccinia Venus	Vaccinia mCherry
`CC(=O)N(Cc1ccc2c(c1)OCO2)C1CC(=O)N(CCc2ccccc2)C1=O` (configuration not stated) reads -6%	.
`COC(=O)[C@@]12C[C@@H](CC(=O)NCc3ccc(OC)c(OC)c3)C(=O)N(Cc3cccc4ccccc34)C1=CCC(C)(C)C2` reads ?	?

New compounds follow:
Values run as follows: Vaccinia Venus | Vaccinia mCherry
- Cc1ccc2c(c1)c1c(c(=O)n(Cc3ccccc3)c(=O)n1Cc1ccccc1F)n2C
    0% | 0%
- O=C(NCCCN1CCCC1)C1CCN(C(=O)c2cc3sccc3n2Cc2ccc(F)cc2)CC1
    -22% | -26%
- Cc1cccc(CSc2nc3ccncc3n2Cc2ccc(C(=O)O)cc2)c1
    -9% | -7%
- CN(C)c1ccc(-c2ccc3ncnc(NCc4ccccc4)c3c2)cc1
    0% | 0%
- Cc1ccc(S(=O)(=O)N2CCCCC2)cc1NC(=O)COC(=O)Cc1c(F)cccc1Cl
    -21% | -2%
- O=C(O)CN1C(=O)c2ccc(Oc3cccc4c3C(=O)N(CC(=O)O)C4=O)cc2C1=O
    -10% | -4%
- Cc1nn(C)c(Oc2cccc(C(F)(F)F)c2)c1C=O
    0% | i
- Cc1sc2nc(-c3ccc(Br)cc3)oc(=O)c2c1C
    -1% | -16%
- COC(=O)[C@@]12C[C@@H](CC(=O)NCc3ccc(OC)c(OC)c3)C(=O)N(CCc3ccc(OC)c(OC)c3)C1=CCC(C)(C)C2
    ? | -17%
- O=C(C(Cc1ccccc1)N1C(=O)c2ccccc2C1=O)N1c2ccccc2CCc2ccccc21 (configuration not stated)
    ? | i
